T cruzi repl: blocks replication of Trypanosoma cruzi | hit rate 1.4% among 300,000 | AID 1885 | T. cruzi beta-gal in NIH3T3, luminescence, 90 h | inhibition, % (no concentration beside the values);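 active = mean inhibition across valid replicates above about 55%, limit read from the data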;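 note: signal also drops with host cell toxicity which is not excluded here; 0% = plate median of DMSO wells and 100% = zero luminescence signal; higher percent means less beta-gal luminescence so fewer parasites; stock transfer was 50 nL into about 50 µL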
UCH37 DUB inh: blocks the human deubiquitinase UCH37. Q9Y5K5. inhibition, % (test concentration not listed). hit rate 0.33% among 330,000. AID 588478. purified proteasome/UCH37, Ub-AMC cleavage fluorescence;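 active = mean of two replicates above 20%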;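 note: 0% = compound-free wells with enzyme and 100% = wells lacking proteasome; stock transfer was 100 nL into about 20 µL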
Target sequence (Q9Y5K5 whole entry, looked up): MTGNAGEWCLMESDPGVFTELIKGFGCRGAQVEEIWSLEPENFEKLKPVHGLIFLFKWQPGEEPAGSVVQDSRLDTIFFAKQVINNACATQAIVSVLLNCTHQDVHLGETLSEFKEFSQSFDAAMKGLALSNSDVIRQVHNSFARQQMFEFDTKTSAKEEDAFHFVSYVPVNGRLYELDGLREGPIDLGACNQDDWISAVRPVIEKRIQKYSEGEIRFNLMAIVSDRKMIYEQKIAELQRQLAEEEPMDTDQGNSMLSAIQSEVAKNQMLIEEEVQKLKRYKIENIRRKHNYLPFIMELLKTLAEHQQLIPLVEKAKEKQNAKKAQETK
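Material: Human UCH37 enzyme supplied as purified proteasome complex | Schedule: 30 min preincubation with enzyme, 25 min cleavage at room temperature | Detection: AMC fluorescence 355/460 nm | Measure: % inhibition of Ub-AMC cleavage fluorescence | Controls: Wells without proteasome as full block, compound-free enzyme plus substrate as uninhibited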
rRNA inh HTS: inhibits bacterial ribosomal RNA function over humanized ribosomes. hit rate 1.6% among 350,000. GFP signal change (wild-type ribosome), % (test concentration not listed). E. coli WT GFP vs humanized-ribosome RFP mutants, fluorescence, 24 h; stronger effect = lower value; DMSO median 0, no signal -100. AID 720706;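 active = significant combined selectivity score with lowered wild-type GFP, culture density cut under 30%, mutant RFP and density less affected; inactive = any of these conditions unmet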; note: one replicate is shown; some compounds called inactive have numbers as strong as hits
E coli growth: blocks Escherichia coli growth; OD600, 23 h; stronger effect = lower value; OD600 absorbance (concentration not given with the values); hit rate 0.21% among 330,000;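 active = OD600 absorbance below the run mean of sample wells minus 3.6 SD, in any replicate, cut at about 0.56 in these data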;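 note: stock transfer was 300 nL into about 60 µL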
FGF22 binding: FGF22 (human) thermal shift binding; Q9HCT0; recombinant FGF22 thermal shift, SYPRO orange fluorescence; percent of sucrose octasulfate shift, DMSO zero; calls only at 9.99 µM; hit rate 1.5% among 340,000;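 active = melting point raised past a set limit in the mean and every replicate; three in four hits are not shown here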
Target sequence (Q9HCT0 whole entry, looked up): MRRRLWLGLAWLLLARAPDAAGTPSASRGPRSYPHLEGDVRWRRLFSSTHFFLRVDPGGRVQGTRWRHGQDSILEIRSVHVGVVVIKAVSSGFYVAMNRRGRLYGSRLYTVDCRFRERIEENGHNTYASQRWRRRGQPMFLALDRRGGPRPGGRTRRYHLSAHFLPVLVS
Bfl-1 A1 inh: inhibitors of the anti-apoptotic protein A1, read as caspase activation | MEF A1-2A-BIM cells, Caspase-Glo 3/7 luminescence, 3 h; percent of clofoctol response, vehicle zero | caspase activation, % (no concentration beside the values) | hit rate 0.066% among 330,000 | AID 2462;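 active = over half of replicate activation scores above 10%, or exactly half above 10 with the replicate mean above 10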;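 note: wells of about 30 µL received 50 nL stock; many hits fall short of the cut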
Beta apoptosis: beta cell apoptosis inhibition. hit rate 0.8% among 300,000. INS-1E cytokine-induced death, ATP luminescence, 48 h; percent of positive-control rescue, neutral wells zero. protection from apoptosis, % (no concentration beside the values). AID 435005;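 active = all replicates at 75% or more, or half of them and the mean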;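 note: 0% = cytokine-treated negative control wells and 100% = positive control rescue; higher means more ATP so stronger rescue from cytokine killing; wells of about 40 µL received 100 nL stock; the first replicate is given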
MLL AF4-AF9 inh: blocks AF4 peptide binding to human AF9. hit rate 0.47% among 350,000. P42568. inhibition, % at 10 µM. AlphaScreen, biotin-AF4 peptide binding to FLAG-AF9;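 active = every replicate reaching a set inhibition limit, whatever the replicate mean, cut at about 25% in these data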;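 note: 0% = plate neutral control median and 100% = total signal loss; the record names both 10 and 1 µM as test concentration; the first replicate is given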
Target sequence (P42568 whole entry, looked up): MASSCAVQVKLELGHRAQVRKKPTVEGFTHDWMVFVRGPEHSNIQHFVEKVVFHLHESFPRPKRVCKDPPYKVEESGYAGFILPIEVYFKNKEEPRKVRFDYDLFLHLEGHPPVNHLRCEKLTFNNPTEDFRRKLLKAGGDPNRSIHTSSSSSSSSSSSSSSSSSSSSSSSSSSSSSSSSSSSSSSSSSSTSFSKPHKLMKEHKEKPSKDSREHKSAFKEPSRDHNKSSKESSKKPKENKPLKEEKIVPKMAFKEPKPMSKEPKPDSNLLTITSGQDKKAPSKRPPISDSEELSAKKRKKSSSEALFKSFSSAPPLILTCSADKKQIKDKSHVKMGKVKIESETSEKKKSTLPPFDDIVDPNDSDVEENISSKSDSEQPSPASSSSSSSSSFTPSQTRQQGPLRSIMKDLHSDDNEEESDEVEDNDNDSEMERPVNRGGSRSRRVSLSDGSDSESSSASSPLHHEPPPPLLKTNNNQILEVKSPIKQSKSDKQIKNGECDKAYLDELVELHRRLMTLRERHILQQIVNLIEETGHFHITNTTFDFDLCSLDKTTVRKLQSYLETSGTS
rRNA inh HTS OD600: second read-out of rRNA inh HTS, no call of its own (marks repeat the call); OD600 change, %; measured here: OD600 growth;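 optical density of the mix in the first replicate; 0 = DMSO median and -100 = no signal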
rRNA inh HTS RFP: recorded beside rRNA inh HTS, whose call it bears; RFP signal change, %; measured here: RFP humanized mutant strains;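 first replicate; 0 = DMSO median and -100 = no signal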
* = called active by the depositor; i = inactive; nt = no result given.

SMILES | T cruzi repl | UCH37 DUB inh | rRNA inh HTS | rRNA inh HTS OD600 | rRNA inh HTS RFP | E coli growth | FGF22 binding | Bfl-1 A1 inh | Beta apoptosis | MLL AF4-AF9 inh
O=C(NN=C1CCCC1)c1ccccc1OCc1ccc(Cl)cc1 | 30 | 4.0 | -11 | -7 | -1.6 | 0.7 | i | 0.0 | nt | -2.0
CCOc1ccccc1NC(=O)NC1CCCCCCC1 | nt | 2.9 | 4 | -5 | 0.3 | 0.7 | i | -0.8 | -2 | -3.4
CC1(C)OC(C)(C)/C(=C\c2ccc(OCC(N)=O)cc2)C1=O | nt | 9.3 | 4 | 2 | -0.2 | 0.71 | i | 0.2 | -7 | -0.3
COc1cc(C2NC(=O)c3ccccc3O2)ccc1OC(C)C (centres undefined) | -4 | 3.8 | 9 | -3 | 2.2 | 0.68 | i | 0.3 | -3 | -16
CN1C(=O)N(c2ccccc2)C(Nc2nncs2)C1(C)C (centres undefined) | -2 | -2.4 | nt | nt | nt | 0.73 | nt | 0.6 | -5 | nt
CC(=O)c1ccccc1NC(=O)COC(=O)c1c(C)nn(-c2ccccc2)c1C | nt | 3.1 | -9 | -35 | -5.2 | 0.72 | i | -8.9 | 1 | 5.7
C/C(=N\NC(=O)CSc1nc(C)[nH]c1[N+](=O)[O-])c1ccc(F)cc1 | -1 | nt | nt | nt | nt | nt | i | 0.3 | -3 | 2.6
O=C(COc1ccc([N+](=O)[O-])cc1)Nc1ccccc1N1CCCC1 | 19 | 3.2 | 5 | 5 | 0.5 | 0.72 | i | 0.0 | 2 | 1.0
O=C(Nc1ccccc1-c1nc2ccccc2s1)c1cccnc1Cl | 3 | -109 | 22 | 16 | 1.5 | 0.73 | i | -0.1 | 11 | 4.8
CCCC(C)NC(=O)c1cc(S(=O)(=O)N2CCCCCC2)ccc1OC (centres undefined) | nt | -2.0 | -22 | -34 | -5.2 | 0.66 | i | 1.0 | -1 | 2.2
COc1ccc(CN(CC(=O)NCc2ccc(F)cc2)C(=O)CCC(=O)Nc2nccs2)cc1 | 0 | 1.4 | 1 | 7 | -0.1 | 0.68 | i | 0.4 | -3 | -14
CS(=O)(=O)c1ccc2c(c1)sc1nc(=O)c(/C=C3/C=CC(=O)C(O)=C3)c(N)n12 | -9 | 20 | 4 | 1 | -2.5 | 0.69 | i | -4.7 | -3 | nt
Cc1nn(C)c(C)c1S(=O)(=O)N1CCC(CO)(CC2CCCCO2)CC1 (centres undefined) | -4 | 0.3 | 15 | 17 | 2.8 | 0.64 | i | -0.4 | -1 | -1.0
CCOc1ccccc1NC(=O)COC(=O)Cc1ccsc1 | nt | 2.0 | -1 | 0 | -0.2 | 0.71 | i | nt | nt | -1.4
CCN(CC)C(=O)C1CCCN(C(=O)c2cc(COc3cccc(OC)c3)on2)C1 (centres undefined) | 7 | 0.3 | 5 | 0 | 0.6 | 0.7 | i | 1.0 | -5 | 0.0
Cn1c(=O)c2c(ncn2CC(COCc2ccccc2Cl)OCc2ccccc2Cl)n(C)c1=O (centres undefined) | 13 | 0.9 | nt | nt | nt | 0.71 | nt | -1.3 | -1 | nt
COc1ccc(-n2cc(C(=O)c3ccc4ccccc4c3O)cn2)cc1 | -22 | 5.5 | 5 | 11 | 0.1 | 0.73 | i | 0.4 | -1 | 0.1
CCOC(=O)c1cnc(-n2nc(C)cc2C)nc1N(CC)CC | -17 | 0.7 | nt | nt | nt | 0.7 | nt | -0.1 | 6 | nt
CNC(=O)c1nn(-c2ccc(Cl)cc2)ccc1=O | -7 | 2.5 | nt | nt | nt | 0.76 | nt | -0.8 | -4 | nt
COc1ccc(N2CCN(C3CC(=O)N(Cc4ccccc4)C3=O)CC2)cc1 (centres undefined) | -8 | 2.4 | -5 | -5 | -14 | 0.72 | i | 0.3 | 2 | 2.9
CC(=O)Nc1ccc(OCc2cccc3ccccc23)cc1 | 10 | 5.7 | -35 | -34 | -3.7 | 0.7 | i | -0.7 | -4 | -0.2
CCn1c(COc2ccccc2OC)nc2ccccc21 | -13 | 6.9 | -13 | -5 | 2.1 | 0.68 | i | 0.2 | -6 | 1.9
COc1cc2c(cc1OC)C(c1cc(Br)c(OC)c(OC)c1)CC(=O)N2 (centres undefined) | -5 | 2.0 | 8 | 12 | 4.0 | 0.67 | i | 0.4 | 0 | -1.6
COc1ccc(/C=N/Nc2nc(N3CCCC3)nc(N3CCCC3)n2)cc1 | 6 | nt | 14 | 2 | 6.3 | nt | i | 0.5 | -3 | -6.6
Cc1ccc(C(=O)OC(C)C(=O)c2cc(C)c(C)cc2C)o1 (centres undefined) | 10 | 4.7 | nt | nt | nt | 0.68 | nt | -0.8 | -7 | nt
O=[N+]([O-])c1ccc(N/N=C/c2ccc(O)c(O)c2O)c(S(=O)(=O)N2CCOCC2)c1 | 11 | nt | 8 | -1 | 10 | nt | i | nt | nt | -7.3
O=C(c1ccc(Br)cc1)c1cc(-c2ccccn2)c(N2CCOCC2)s1 | -6 | -26 | nt | nt | nt | 0.69 | nt | 2.0 | 13 | nt
Cc1nc(-c2ccccc2)cc(N2CCCC2)n1 | 0 | -0.6 | nt | nt | nt | 0.66 | nt | -0.1 | -14 | nt
CCOc1ccc(/C(O)=C2/C(=O)C(=O)N(CC3CCCO3)C2c2cccs2)cc1 (centres undefined) | -5 | 8.5 | 17 | 14 | -4.3 | 0.72 | i | 1.5 | 2 | -0.8
O=C(Nc1ccc(Cc2ccncc2)cc1)c1ccc(S(=O)(=O)N2CCCC2)cc1 | 37 | 1.8 | -17 | -16 | -1.5 | 0.7 | i | nt | nt | 0.0
CC12CCC(=O)C=C1CCC1C2CCC2(C)C(c3csc(N)n3)CCC12 (centres undefined) | nt | -1.5 | -38 | -45 | -9.2 | 0.64 | i | nt | nt | -1.3
c1ccc(C(c2ccccc2)c2noc(CN3CCC(c4ccncc4)CC3)n2)cc1 | 61* | 0.2 | -43* | -19* | -2.3* | 0.73 | i | 0.6 | -8 | 5.6
CC(C)(C)OC(=O)N1CCC[C@H]1C(=O)Nc1ccc(S(=O)(=O)C(F)F)cc1 | 14 | -0.4 | 7 | 14 | -1.9 | 0.67 | i | -0.5 | 4 | -2.7
O=C1CCc2cc(S(=O)(=O)Nc3ccccc3)cc3c2N1CC3 | -1 | -0.1 | 10 | 7 | 0.5 | 0.69 | i | 1.2 | 11 | -0.3
CCOc1ccc(NC(=O)CN(C)C(=O)c2cn(-c3ccc(C)cc3)nc2-c2cccc(OC)c2)cc1OCC | nt | 3.7 | 1 | 16 | 0.5 | 0.71 | i | nt | nt | 6.9
COc1ccc(NC(=O)c2ccco2)c(NC(=O)Cc2cccs2)c1 | -7 | 4.2 | nt | nt | nt | 0.68 | nt | -1.3 | -3 | nt
COc1ccccc1C(=O)N/C(=C\c1cn(C)c2ccccc12)C(=O)N1CCCC1 | 18 | 9.6 | -2 | -16 | 0.5 | 0.67 | i | 0.3 | 4 | 3.0
Cc1ccc(C(=S)NCS(=O)(=O)c2ccc(C)cc2)cc1 | -33 | 3.3 | nt | nt | nt | 0.72 | nt | 0.5 | -12 | nt
Cc1ccc2[nH]cc(CCNC(=O)c3ccco3)c2c1 | 14 | 3.6 | -2 | 7 | -0.9 | 0.7 | i | 0.4 | 4 | -7.6
CC(=O)Nc1ccc(S(=O)(=O)NCc2nc(-c3ccccc3Cl)no2)cc1 | 1 | -0.6 | -3 | 5 | -0.3 | 0.71 | i | 0.2 | 4 | -0.8

Sorted by the number under rRNA inh HTS RFP (falling): some entries from above
canonical_smiles	UCH37 DUB inh	rRNA inh HTS	rRNA inh HTS OD600	rRNA inh HTS RFP	E coli growth	FGF22 binding	MLL AF4-AF9 inh
Cc1ccc2[nH]cc(CCNC(=O)c3ccco3)c2c1	3.6	-2	7	-0.9	0.7	i	-7.6
CC(C)(C)OC(=O)N1CCC[C@H]1C(=O)Nc1ccc(S(=O)(=O)C(F)F)cc1	-0.4	7	14	-1.9	0.67	i	-2.7
c1ccc(C(c2ccccc2)c2noc(CN3CCC(c4ccncc4)CC3)n2)cc1	0.2	-43*	-19*	-2.3*	0.73	i	5.6

Remaining list, next part
SMILES | T cruzi repl | UCH37 DUB inh | rRNA inh HTS | rRNA inh HTS OD600 | rRNA inh HTS RFP | E coli growth | FGF22 binding | Bfl-1 A1 inh | Beta apoptosis | MLL AF4-AF9 inh
CCOC(=O)c1cc(C(C)(C)C)oc1CNC(=O)c1c(C)oc2c1CCCC2 | 15 | 3.1 | nt | nt | nt | 0.71 | nt | -0.8 | 4 | nt
Cc1c(C(=O)OCC(=O)c2c(N)n(CC(C)C)c(=O)n(C)c2=O)oc2ccccc12 | 38 | 5.8 | nt | nt | nt | 0.67 | nt | -0.5 | 17 | nt
CCCCS(=O)(=O)c1sc2nc3c(cc2c1N)CCCC3 | 7 | -59 | nt | nt | nt | 0.69 | nt | -1.0 | 8 | nt
Cc1ccc(C)c(NC(=O)CSc2nnc(-c3ccccc3)o2)c1 | 4 | 4.8 | 2 | 0 | 2.0 | 0.73 | i | 0.5 | -2 | -2.0
COC(=O)c1ccc(COc2ccc(/C=N/Nc3nc(C)cc(=O)[nH]3)cc2)cc1 | -3 | nt | -1 | 0 | -4.4 | nt | i | -0.9 | 7 | 2.4
O=C(NCCN1CCOCC1)c1cc(Sc2cccc(Cl)c2)nc2ccccc12 | -5 | 6.4 | nt | nt | nt | 0.67 | nt | 0.1 | 8 | nt
CCC(CC)C(=O)NCCc1cc2ccc(C)cc2[nH]c1=O | -5 | 3.1 | -14* | 4.8* | -1.2* | 0.74 | i | 0.6 | -5 | -4.8
COc1ccc(CCNC(=O)CCCOc2cccc(C)c2C)cc1OC | -8 | 1.7 | -8 | -13 | -5.0 | 0.68 | i | 0.1 | 1 | -5.0
Cc1cc(=O)[nH]c(/N=C(\N)Nc2ccc(SC(F)F)cc2)n1 | -5 | nt | 9 | 9 | 1.4 | nt | i | -1.2 | -3 | 1.4
CCOC(=O)c1[nH]c2ccc(C)cc2c1N | 0 | -136 | nt | nt | nt | 0.73 | nt | -5.2 | -4 | nt
CCC(=O)OCC(=O)c1cc(C)n(-c2ccc(Br)cc2)c1C | -1 | 1.2 | -35 | -58 | 1.1 | 0.66 | i | 0.6 | -8 | 4.4
CCCCCn1c(=O)[nH]c2cc(C(=O)NCCCN(C)Cc3ccccc3)ccc2c1=O | 58* | -13 | -3 | -10 | -1.6 | 0.69 | i | 0.6 | 13 | -13
COC(C(=O)NCc1ccccc1C)c1ccccc1 (centres undefined) | -14 | 2.8 | nt | nt | nt | 0.66 | nt | 0.3 | -1 | nt
Cc1ccc(NC(=O)/C(=C/c2ccc([N+](=O)[O-])cc2)NC(=O)c2ccccc2)cc1 | 2 | 8.3 | 11 | 6 | 2.9 | 0.77 | i | -0.4 | -1 | -1.6
COc1cccc(-c2c(C(=O)N/N=C/c3sccc3C)nnn2-c2nonc2N)c1 | -2 | nt | -6 | -22 | 5.8 | nt | i | -0.3 | -13 | 0.0
COCCCNC(=O)C1CCC(CNS(=O)(=O)c2ccc(OC)cc2)CC1 (centres undefined) | -3 | -0.6 | -3 | 1 | -1.7 | 0.69 | i | -0.1 | 2 | -1.1

These rows are one share of the data (hit frequency here may not be typical).
